Source: PubChem (National Center for Advancing Translational Sciences (NCATS))
Cruzain noTriton: blocks cruzain activity in detergent-free assay. P25779. purified cruzain, Z-FR-AMC fluorescence, no detergent. Potency, µM, for inactives: max response, negative = inhibition, usual class: inhibitors. 2.3% of 200,000 active. AID 1476; active = well fitted curve in the direction sought with a large enough effect; inconclusive = small, poorly fitted or top-dose-only effect, or another doubt; inactive = no such curve, though single readings can be large; an effect the other way counts as inactive or inconclusive;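 also: plate controls were enzyme without inhibitor for no effect and buffer without enzyme for full effect; nearly all actives have a fitted effect of over 40% in size; top concentration of the series not given in the record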
Target sequence (P25779 123-467 limits assumed): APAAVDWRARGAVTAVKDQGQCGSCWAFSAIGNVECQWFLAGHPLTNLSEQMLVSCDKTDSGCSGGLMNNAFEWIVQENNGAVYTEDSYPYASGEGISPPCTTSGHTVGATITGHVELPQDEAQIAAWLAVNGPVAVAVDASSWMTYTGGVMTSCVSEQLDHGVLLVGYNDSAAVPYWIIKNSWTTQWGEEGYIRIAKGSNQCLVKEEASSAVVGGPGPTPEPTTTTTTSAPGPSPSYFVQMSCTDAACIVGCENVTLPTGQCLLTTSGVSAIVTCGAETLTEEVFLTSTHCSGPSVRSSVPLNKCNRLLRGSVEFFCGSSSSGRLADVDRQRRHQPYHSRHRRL
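Detergent-free condition (0.00005% Triton X-100) in acetate buffer pH 5.5 with DTT. 1.5 nM enzyme and compound were pre-mixed 15 min, then 2 uM Z-FR-AMC substrate added; reaction progress from fluorescence change between first and third reads (60 s).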
RE007 growth inh: less growth of the S. pombe RE007 Vpr strain; AID 651644; S. pombe RE007 Vpr strain, BacTiter-Glo ATP luminescence, 24 h; control for the full effect not named in the record; Potency, µM (top dose mostly 92.2 µM), for the others: at the top dose activity change, negative = less growth; 0.21% of 360,000 active; active = well fitted falling curve with a large enough effect; inconclusive = small, poorly fitted or top-dose-only effect; inactive = no such curve, though single readings can be large or run the other way;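 also: % is scaled to controls: 0 for no effect and ±100 for the full control effect; nearly all actives have a fitted effect of over 50% in size; the assay follows cell death caused by Vpr and the record does not say whether a fall means rescue or toxicity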
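Fission yeast strain RE007, carrying one chromosomally integrated HIV-1 vpr copy, was seeded at OD 0.01 in PMG+AL medium with 23 nL pinned compound. After 24 h at 30 °C and 99% humidity, viability was read by BacTiter-Glo luminescence.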
StopGo reporter: lowers the luciferase signal of an FMDV 2A StopGo reporter; human cells with a luciferase reporter of 2A StopGo recoding; control for the full effect not named in the record; Potency, µM (doses to about 57.9 µM), without a hit: at the highest dose signal change, negative = less light; 1.2% of 410,000 active; active = well fitted falling curve with a large enough effect; inconclusive = small, poorly fitted or top-dose-only effect; inactive = no such curve, though single readings can be large or run the other way; tested in HEK293T cells; also: % is scaled to controls: 0 for no effect and ±100 for the full control effect; nearly all actives have a fitted effect of over 45% in size; luciferase light after 4 h
SARS PLpro yeast: inhibitors of SARS-CoV papain-like protease in yeast; S. cerevisiae expressing SARS-CoV PLpro, growth rescue; control for the full effect not named in the record; Potency, µM (top dose mostly 32.9 µM), for the others: at the top dose activity, positive = growth rescue; 0.19% of 330,000 active; also: 0% is about no effect; nearly all actives have a fitted effect of over 55% in size; growth read by luminescence after 48 h
NS1 function inh: influenza NS1 inhibition; S. cerevisiae slowed by influenza A NS1, growth recovery by OD600; Potency, µM (highest dose often 46.1 µM), for the others: at the highest dose activity, positive = more growth; 0.4% of 270,000 active; AID 2326; also: actives are rising curves; nearly all actives have a fitted effect of over 50% in size
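Growth recovery, yeast-based: influenza A NS1 expressed in S. cerevisiae causes slow growth, and suppressors are detected by OD600. The parent strain without NS1 is used as positive control.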
Cruzain inh Det: inhibitors of Trypanosoma cruzi cruzain with detergent; 0.43% of 200,000 active; P25779; purified cruzain, Z-FR-AMC fluorescence, 0.01% Triton; AID 1478; Potency, µM, for the others: max response, negative = inhibition, usual class: inhibitors; active = well fitted curve in the direction sought with a large enough effect; inconclusive = small, poorly fitted or top-dose-only effect, or another doubt; inactive = no such curve, though single readings can be large; an effect the other way counts as inactive or inconclusive;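 also: plate controls were neutral wells for no effect and buffer without enzyme for full effect; nearly all actives have a fitted effect of over 40% in size; top concentration of the series not given in the record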
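Sodium acetate buffer (100 mM, pH 5.5) containing 5 mM DTT and 0.01% Triton X-100 hosted 1.5 nM cruzain and test compound for 15 min at room temperature. Cleavage of 2 uM Z-FR-AMC was then tracked by fluorescence.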
Lassa entry inh: Lassa virus entry inhibition; Lassa virus pseudotype entry inhibition, cell reporter; control for the full effect not named in the record; Potency, µM (top dose mostly 37.9 µM), for the others: at the highest dose activity change, negative = inhibition, usual class: inhibitors; 1.2% of 300,000 active; AID 540256; active means well fitted inhibition curve with a large enough effect; inconclusive means small, poorly fitted or top-dose-only effect, or effect the other way; inactive means flat fitted curve, though single readings scatter; tested in HEK293 cells; also: % is scaled to controls: 0 for no effect and ±100 for the full control effect; nearly all actives have a fitted effect of over 50% in size; luciferase read-out
Marburg entry inh: Marburg virus entry inhibition. 1.8% of 300,000 active. Potency, µM (titrated, usually from 37.8 µM), for inactives: top-dose activity change, negative = inhibition, usual class: inhibitors. AID 540276. Marburg virus pseudotyped entry inhibition, cell reporter; control for the full effect not named in the record; about a third of the inactives were read at about 46 µM; active = well fitted inhibition curve with a large enough effect; inconclusive = small, poorly fitted or top-dose-only effect, or effect the other way; inactive = flat fitted curve, though single readings scatter; tested in HEK293 cells; about a fifth of its hits are not listed in these tables; also: % is scaled to controls: 0 for no effect and ±100 for the full control effect; luciferase read-out
Active calls of the source: *; ? = inconclusive; . = not tested or not shown; & = joins results of further samples; ! = not confirmed by another sample; [ ] = dose if it differs, or a comment. Unless noted, calls follow the shape of the dose curve; as a rule, active means well fitted rising curve with a large enough effect; inconclusive means small, poorly fitted or top-dose-only effect; inactive means no such curve, though single readings can be large or run the other way. Potency is read from the fitted curve at half-maximal effect.

SMILES	Cruzain noTriton	RE007 growth inh	StopGo reporter	SARS PLpro yeast	NS1 function inh	Cruzain inh Det	Lassa entry inh	Marburg entry inh
Cc1cnc(=O)[nH]c1SCc1cccc(C(F)(F)F)c1	.	12%	-18%	?	-5%	.	.	.
O=c1c2c([nH]c3ccccc13)CCC2	.	0%	-2%	1%	-1%	.	.	.
COc1ccc(Cl)cc1CNCCSc1nnnn1C	9%	.	-21%	.	.	-0.6%	8%[46.1 µM]	-4%[46.1 µM]
COc1cc(OC)cc(C(=O)NC(=S)Nc2ccc3[nH]c(=O)[nH]c3c2)c1	.	8%	-6%	-1%	15%	.	-6%	2%[46.1 µM]
CCCCOc1c(C(=O)Nc2ccccc2)nnn1-c1ccccc1	.	-8%	?	1%	.	.	3%	-13%[14.2 µM]
CC1(C)CC(=O)C2=C(C1)Nc1cc3c(cc1C2c1ccc2c(c1)OCO2)OCO3 (stereo unspecified)	-25%	-3%	24%	5%	-32%	-3.5%	.	0%
Cc1nn(-c2ccccc2)c(C)c1-c1nnc(C(F)(F)F)o1	.	-17%	-6%	0%	-4%	.	.	.
Cc1nc(-c2ccc(NC(=O)C(C)(C)C)cc2)c(-c2ccccc2)o1	.	-14%	-24%	-1%	0%	.	-23%	?
O=C(COC(=O)C1CCC1)Nc1ccc(Oc2ccccc2)cc1	1%	-7%	0%	-21%	-56%	-5.0%	9%	10%
COc1ccccc1OCC(O)CO (stereo unspecified)	5%	17%	40%&-20%[activator]	5%	3%	3.8%	.	.
Cc1ccc(S(=O)(=O)NCc2ccc(C(=O)NCCc3cccc(C)c3)cc2)cc1	5%	.	-14%	.	.	0.2%	-2%[46.1 µM]	.
COc1cc2c(cc1OC)C(C)N(CC(=O)Nc1ccc(C)c(S(=O)(=O)N3CCOCC3)c1)CC2 (stereo unspecified)	.	-2%	?	6%	1%	.	.	.
O=C(c1cccs1)c1cn(CCOc2ccccc2Cl)c2ccccc12	?	.	-23%	.	.	-3.0%	-1%[46.1 µM]	4%[46.1 µM]
Nc1nc(-c2ccccc2)nc(-c2ccccc2O)n1	.	11%	0%	.	-24%	.	-5%	-18%
CCOC(=O)C1CCCN(S(=O)(=O)c2ccc(F)c(C(=O)Nc3ccc(F)c(F)c3)c2)C1 (stereo unspecified)	-4%&0%	10%	-20%	6%	-11%	-2.2%&-6.2%	-15%[46.1 µM]	-14%&-14%
C/C(=N\NC(=O)c1ccc(F)cc1)c1cccc(NC(=O)c2cccc(F)c2)c1	.	-19%	-3%	-6%	-19%	.	.	.
O=C(c1cc2cc([N+](=O)[O-])ccc2oc1=O)n1cccn1	.	-22%	0%	14%	22%	.	-14%[46.1 µM]	6%[46.1 µM]
Cc1cc(NC(=O)COC(=O)COc2ccc3c(c2)CCC3)no1	-2%	-3%	-16%	-2%	-50%	0.3%	-8%	-6%
CCOc1cc(/C=N/NC(=O)CN(CCc2ccccc2)S(=O)(=O)c2ccc(NC(C)=O)cc2)ccc1O	?	-10%	-27%	13%	37%	-4.1%	?	-33%
COC(=O)C(CCSC)NC(=O)C(NC(=O)C1CCC(C)CC1)C(C)C (stereo unspecified)	-8%	-10%	-3%	-5%	-8%	-15%	8%	-4%
COc1cccc(-c2ccc3ncnc(NCc4cccs4)c3c2)c1	-4%	.	?	7.1µM*!	.	-7.2%	.	.
COCCOC(=O)c1[nH]c2c(c1C)C(=O)CC(c1ccc(N(C)C)cc1)C2 (stereo unspecified)	11%	0%	-21%	5%	-4%	0.7%	?	-18%[46.1 µM]
CC(C)(C)c1ccc(CN2N=Nc3ccccc3S2(=O)=O)cc1	?	6%	?	-1%	-5%	-12%	11µM*	?
CC(O)c1nc2ccc(Cc3ccc4nc(C(C)O)[nH]c4c3)cc2[nH]1 (stereo unspecified)	2%	5%	-18%	3%	-2%	3.1%	-28%	-22%
COc1cc(NC(=O)COc2c(C)cc(C)cc2[N+](=O)[O-])c(OC)cc1Cl	8%	-2%	0%	-17%	5%	-8.1%	-12%	5%

Other compounds
SMILES	Cruzain noTriton	RE007 growth inh	StopGo reporter	SARS PLpro yeast	NS1 function inh	Cruzain inh Det	Lassa entry inh	Marburg entry inh
COc1ccc(Cn2c(SCc3ccc(C(=O)NC4CCCCC4)cc3)nc3ccncc32)cc1	-10%	.	?	.	.	2.1%	.	?
COc1ccc(NC(=O)c2cc(-c3ccncc3)nc3ccc(Br)cc23)cc1OC	.	-10%	-19%	1%	-1%	.	-17%[46.1 µM]	?
COC(=O)C(Cc1ccc(O)cc1)NC(=O)C(CC(=O)OC(C)(C)C)NC(=O)OC(C)(C)C (stereo unspecified)	.	1%	10%	4%	.	.	-2%	?
CC(NC(=O)COC(=O)Cc1ccsc1)c1ccccc1 (stereo unspecified)	17%	-6%	-20%	10%	-3%	-1.1%	13%	14%
O=C(C[n+]1cc(-c2ccc(Cl)cc2)n2c1CCC2)N1c2ccccc2Sc2ccccc21	-9%	5%	-27%	2%	-2%	-4.8%	-17%	?
O=c1oc(-c2ccco2)nc2c1cnn2-c1ccccc1	0%	-9%	-22%	-8%	-59%	-1.8%	?	-1%[46.1 µM]
Cc1ccc(S(=O)(=O)N(CC(=O)NCc2ccco2)C2CCCCC2)cc1	-9%	-7%	.	-14%	-12%	-6.7%	-20%	-13%
COc1ccc(OC)c(NC(=O)CCNS(=O)(=O)c2ccc3[nH]c(=O)oc3c2)c1	.	10%	10%	-1%	0%	.	.	.
Oc1ccc2ccccc2c1CNc1ccc2ccccc2c1	.	?	2%	.	.	.	12%[46.1 µM]	?
COc1ccccc1N1CC(C(=O)Nc2ccc(S(=O)(=O)N3CCCC3)cc2)CC1=O (stereo unspecified)	.	1%	-9%	14%	.	.	5%[46.1 µM]	2%[46.1 µM]
Cc1cc2oc(=O)cc(CN(C)Cc3ccccc3F)c2cc1Cl	.	-4%	20%	-1%	-11%	.	0%[46.1 µM]	?
COC(=O)/C=C/c1ccc2c(c1)OCO2	.	-9%	8%	-1%	.	.	-7%[46.1 µM]	-13%[46.1 µM]
Cc1nc2cc(-c3cccc(F)c3)nn2c(C)c1CCC(=O)N1CCN(c2ccccn2)CC1	.	-15%	8%	3%	-36%&1%	.	.	.
CC(=O)NC1CCC(C(=O)O)(c2ccccc2)C1 (stereo unspecified)	1%	1%	-2%	4%	0%	6.2%	10%	4%
COc1ccc(C(CNC(=O)Cc2ccc(Cl)c(Cl)c2)N(C)C)cc1 (stereo unspecified)	.	-17%	2%	2%	2%	.	.	?
O=C(Nc1ccccc1)c1ccc(NCc2cccnc2)c(S(=O)(=O)N2CCOCC2)c1	8%	?	37%[activator]	2%	-30%	-1.2%	3%	-22%
O=Nc1c2cc3ccccc3[nH]c-2c2ccccc12	.	-15%	-22%	.	.	.	?	?
COc1cc(-c2cc(=O)c3c(O)c(OC)c(OC)c(O)c3o2)ccc1O	.	-6%	-12%	1%	2%	.	.	.
CCCCSC1=NN1c1nc(N)nc(C)c1CC	9%	2%[3.69 µM]	10%	27%	-5%	4.5%	13%	4%
O=C(OCC(=O)N1CCCC1)c1ccc(O)cc1	.	9%	21%	16%	5%	.	-9%	?
O=C(COC(=O)c1cccc(S(=O)(=O)N2CCCCC2)c1)NC1CCCc2ccccc21 (stereo unspecified)	13%	7%	-16%	-2%	-1%	-1.4%	-2%	2%
C=CCN(C(=O)c1cccc(S(=O)(=O)N2CCN(C)CC2)c1)c1nc(-c2ccccc2)cs1	?	3%	?	-12%	7%	-2.2%	?	?
CCCc1cc(=O)n2[nH]c(SCc3ccccc3)nc2n1	-5%	0%	12%	18%	-5%	1.9%	14%	15%
Cc1cc(C(=O)COC(=O)c2cccs2)c(C)n1-c1c(C)n(C)n(-c2ccccc2)c1=O	-13%	5%	11%	4%	-5%	5.9%	0%	6%
O=C(NCc1n[nH]c(=S)n1-c1ccccc1Cl)c1ccc(S(=O)(=O)N2CCCCC2)cc1	.	-13%	24%	10%	-5%	.	4%[46.1 µM]	?

Following part:
SMILES	Cruzain noTriton	RE007 growth inh	StopGo reporter	SARS PLpro yeast	NS1 function inh	Cruzain inh Det	Lassa entry inh	Marburg entry inh
CC(C)OP(=O)(OC(C)C)C(Nc1ccccc1)c1cccc2c1OCO2 (stereo unspecified)	22%	-9%	-27%	3%	2%	-1.4%	2%	?
CN(Cc1ccc(C(C)(C)C)cc1)C(=O)c1ccc2c(=O)n3c(nc2c1)CCC3	.	26%	-22%	0%	.	.	-15%[46.1 µM]	-8%
Cc1ccc(O)c(C(=O)c2cnn(-c3ccc(S(=O)(=O)N4CCOCC4)cc3[N+](=O)[O-])c2)c1	-6%	-20%	6%	9%	11%	-4.0%	-1%	0%
COc1cc(CCC(=O)NNC(=O)c2cccc(Cl)c2)cc(OC)c1OC	.	8%	13%	2%	-3%	.	1%	8%[46.1 µM]
CCc1ccc(NC(=O)c2ccc(Cn3nc(N4CCN(c5ccccc5)CC4)ccc3=O)o2)cc1	?	.	?	.	.	-15%	-22%[46.1 µM]	.
CCOC(=O)C1(Cc2ccc(OC)cc2)CCN(C(=O)c2sc(C)nc2C)CC1	.	6%	1%	1%	-5%	.	.	.
Cc1cccc(OCc2ccc(C(=O)N3CCOCC3)o2)c1	.	-8%	21%	-6%	13%	.	5%	-4%[46.1 µM]
O=C(CCN1C(=O)/C(=C/c2ccccc2Cl)SC1=S)NCCCN1CCOCC1	.	17%	-21%	3%	14%	.	.	.
Cc1cc(Br)ccc1OCCn1ccnc1	-15%	-11%	-3%	-26%	-12%	-4.0%	24%	10%
Cn1nc(C(=O)N2CCN(c3ccccn3)CC2)c2ccccc2c1=O	.	1%	-9%	3%	.	.	-2%	-17%
Nc1nnc(SCc2ccc3c(c2)OCO3)s1	5%	8%	50%[activator]	.	-8%	4.3%	?	8%[46.1 µM]
Cc1ccc(C)c(Cn2cnc3c(cnn3C(C)(C)C)c2=O)c1	4%	10%	0%	5%	-39%	0.1%	6.3µM*	?
COc1ccc(C(=O)Nc2cccc(-c3ccc4nncn4n3)c2)cc1OC	.	-16%	-7%	2%	.	.	-3%[46.1 µM]	-15%[46.1 µM]
CCOc1ccc(NC(=O)c2oc3ccccc3c2NC(=O)CC)cc1	19%	.	.	1%	-6%	1.2%	.	.
